# RVFV N-RNA inh = inhibitors of RVFV nucleoprotein–RNA binding, primary screen, biochemical, fluorescence polarization; RVFV N-RNA binding; stronger effect = lower value; % bound, % (concentration not given with the values); AID 651828, 2012; P21700; hit rate 0.1% among 20,000;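 active means between 0 and 58% in either replicate with normal brightness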;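 further: 100 nL library stock added to about 12 µL; 100% = protein and probe without compound and 0% = probe alone; numbers are from one replicate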
# Target sequence (P21700 whole entry, looked up): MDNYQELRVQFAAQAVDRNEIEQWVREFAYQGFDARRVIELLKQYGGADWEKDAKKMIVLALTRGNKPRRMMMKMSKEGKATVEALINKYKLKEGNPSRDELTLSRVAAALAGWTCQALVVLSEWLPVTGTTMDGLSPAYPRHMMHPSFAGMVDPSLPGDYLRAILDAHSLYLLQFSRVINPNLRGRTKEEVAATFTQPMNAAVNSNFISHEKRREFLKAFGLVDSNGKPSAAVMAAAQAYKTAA
# An asterisk follows results filed as active. Not all compounds are listed (hit frequency here may not be typical).
SMILES,RVFV N-RNA inh
N#Cc1cc2c(nc1SC1CCc3ccccc3C1=O)CCCC2 (configuration not stated),90
O=C(CSc1ncccn1)N1CCCc2ccccc21,104
CC(C)(C)n1ncc2c(=O)n(CC(=O)N3CCCC3)cnc21,91
COC(=O)c1ccc(=O)c2nc3/c(=C/O)c(O)cc(=O)c3[nH]c12,104
O=C(NCc1ccccc1)C1CCC(C(=O)NCc2ccccc2)N1 (configuration not stated),92
C=CCN1C(=O)CS/C1=C(\C#N)S(=O)(=O)c1ccc(C)cc1,91
COc1cccc(NC(=O)c2c(OC)cccc2OC)c1,90
COc1ccc(OCCOc2ccc(C)cc2OC)cc1,95
CC(=O)Nc1ccc(S(=O)(=O)NNc2ncnc3sccc23)cc1,93
CCc1nc(C)cn1S(=O)(=O)c1cc(Br)c(C)cc1OC,109
COc1c(C)cc(S(=O)(=O)N2CCN(c3ccc(F)cc3)CC2)c(C)c1C,95
CCOC(=O)c1nnn2c1nc(Sc1nc3ccccc3[nH]1)c1ccccc12,101
CCOC(=O)Cn1c(=NC(=O)C2COc3ccccc3O2)sc2cc(NC(C)=O)ccc21 (configuration not stated),105
CC(c1ccccc1)C(CC(=O)Nc1nccs1)C(=O)Nc1nccs1 (configuration not stated),95
Oc1cccc(-c2nc(N3CCOCC3)c3sccc3n2)c1,103
CO/N=C(/C(=O)N[C@@H]1C(=O)N2C(C(=O)OCSC(=O)c3ccco3)=CCS[C@H]12)c1csc(N)n1,97
NC(=O)CSc1ccc(-c2ccccc2)nn1,101
CCCCC(=O)Nc1ccc(S(=O)(=O)NC(C)(C)C)cc1,97
CN(Cc1ccccc1)Cc1ccco1,94
O=C(Sc1cccs1)c1csc(C2COc3ccccc3O2)n1 (configuration not stated),94
CC1(C)O[C@@H]2C[C@H]3[C@@H]4CCC5=CC(=O)C=C[C@]5(C)[C@@]4(F)[C@@H](O)C[C@]3(C)[C@]2(C(=O)CO)O1,107
CCOc1cc(/C=C2\C(O)C3CCN2CC3)cc(Cl)c1OCC (configuration not stated),95
CC1=C(C(N)=O)C(c2ccccc2)n2ncnc2N1 (configuration not stated),86
Brc1cc2c(cc1[C@H]1Nc3ccccc3[C@H]3C=CC[C@H]31)OCO2,96
CC12CNCC(C)(CN(C(=O)CCC(=O)O)C1)C2=O,93
# Remaining list, next part.
SMILES,RVFV N-RNA inh
CCOC(=O)c1cc(-c2ccc(Cl)cc2)oc1/C=N/OC(=O)c1ccco1,95
Nc1nc2ccc(S(=O)(=O)c3ccccc3)cc2[nH]1,95
COc1ccc2c(c1OC)C(=O)OC2CC(=O)c1ccccc1 (configuration not stated),93
O=C(COc1coc(CN2CCN(Cc3ccccc3)CC2)cc1=O)NCC1CCCO1 (configuration not stated),90
Cc1ccc2c(c1)=C(c1sc(N)nc1O)C(=O)N=2,103
NNc1nccc(C(F)(F)F)n1,99
CN1C[C@H](CNC(=O)OCc2ccccc2)C[C@@H]2c3cccc4c3c(cn4C)C[C@H]21,104
COc1ccc(Cc2nnc(Nc3ccc(Cl)cc3Cl)o2)cc1OC,99
CCOC(=O)/C(C#N)=C/c1sccc1C,94
Cc1cccc(N=Cc2cccc(O)c2)c1,90
Cc1cc(=O)oc2cc(OC(C)C(=O)Nc3ccccc3)ccc12 (configuration not stated),95
Cc1noc(C)c1-c1nnc(-c2cccc(C(F)(F)F)c2)o1,101
COC(=O)c1c(C)nn(C(=O)c2ccc(Cl)cc2)c1-c1snnc1C,95
O=C(CCN1CCN(C(c2ccccc2)c2ccccc2)CC1)N/N=C/c1cccnc1,94
COc1ccc(C(=O)c2cnc3ccccn23)cc1Cl,97
S=C1NCCc2ccccc21,92
CNC[C@H](O)c1ccc(O)c(O)c1,93
CC1(C)C(=O)C2(C(=O)NCc3ccccc3)CCC1C2 (configuration not stated),99
CCOC(=O)c1cc2n(n1)C(C(F)(F)C(F)(F)F)CC(C)N2 (configuration not stated),108
CS(=O)(=O)N(CC(N)=O)C1CCCCC1,98
O=C(CN1C(=O)CCC1=O)NC(=S)Nc1cccc(-c2nc3ccccc3o2)c1,97
N#Cc1c(N)ccn(Cc2ccccc2)c1=O,92
CCOC(=O)/C(C#N)=C\c1ccc(N2CCOCC2)cc1,92
NC(=O)N/N=C/c1ccc(OC(=O)c2ccco2)cc1,90
O=c1[nH]c(Nc2nc3ccccc3o2)nc2c1CCCC2,105

# Taken from above:
# Value of `Cc1ccc2c(c1)=C(c1sc(N)nc1O)C(=O)N=2` in RVFV N-RNA inh: 103
# Value of `N#Cc1c(N)ccn(Cc2ccccc2)c1=O` in RVFV N-RNA inh: 92

# Continued:
SMILES,RVFV N-RNA inh
O=C1N/C(=C/c2ccsc2)C(=O)N1c1ccccc1,116
c1ccc(CC2=NNC(Cc3ccccc3)=NN2)cc1,104
COc1ccc(CNC(=O)c2cnn3cc(Br)cnc23)cc1,94
Cc1cc(/C=C2/C(=O)NC(=S)N(Cc3ccco3)C2=O)c(C)n1C1CCCCC1,91
COc1ccc(S(=O)(=O)N(CC#N)Cc2ccco2)cc1OC,105
Cc1ccccc1NC(=O)c1c(NC(=O)c2ccco2)sc2c1CCC2,97
O=C1C(C=NCc2ccco2)=C(O)c2ccccc21,92
CS(=O)(=O)Nc1ccc(/C(N)=N/OC(=O)Nc2ccccc2)cc1,101
CCOC(=O)CCc1ccc(C(=O)C(F)(F)F)o1,90
CCOC(=O)CSc1nnc(CNC(=O)Cc2ccccc2)n1-c1ccc(OC)cc1,95
COc1ccc(-n2nnnc2-c2cnc(N)nc2C(F)(F)F)cc1,98
CCOCCn1ccc2c(OCC(=O)NC3CCCCC3)cccc2c1=O,92
O=c1oc2cc(O)ccc2cc1-c1ccc(F)cc1,89
CN1CCC2=C(C1)C(=O)NC1(CCCCC1)N2,99
CCOC(=O)C1=CN(C2CCCC2)C=C(C(=O)OCC)C1c1ccccc1C,94
CNC(=O)/C=C1\NC(C)(C)Cc2c1ccc1ccccc21,98
CCn1c2ccccc2c2cc(C3C(C(=O)OC)=C(C)NC4=C3C(=O)CC(c3ccco3)C4)ccc21 (configuration not stated),106
COC(=O)c1c(C)cc(O)c(C)c1O,96
Cc1nnsc1-c1onc(C)c1C(=O)O/N=C/c1ccc(Cl)cc1,90
Cc1ccc(C2N[C@@H](C(=O)O)C(C)(C)S2)cc1 (some centres not stated),92
CC1(C)Oc2[nH]c(=O)[nH]c(=O)c2C2c3ccccc3OCC21 (configuration not stated),103

# Sorted by SMILES length (largest number first): part of the list above.
SMILES,RVFV N-RNA inh
CCn1c2ccccc2c2cc(C3C(C(=O)OC)=C(C)NC4=C3C(=O)CC(c3ccco3)C4)ccc21 (configuration not stated),106
Cc1cc(/C=C2/C(=O)NC(=S)N(Cc3ccco3)C2=O)c(C)n1C1CCCCC1,91
O=C(CN1C(=O)CCC1=O)NC(=S)Nc1cccc(-c2nc3ccccc3o2)c1,97
CCOC(=O)CSc1nnc(CNC(=O)Cc2ccccc2)n1-c1ccc(OC)cc1,95
CCOC(=O)C1=CN(C2CCCC2)C=C(C(=O)OCC)C1c1ccccc1C,94
CS(=O)(=O)Nc1ccc(/C(N)=N/OC(=O)Nc2ccccc2)cc1,101
CCOC(=O)c1cc2n(n1)C(C(F)(F)C(F)(F)F)CC(C)N2 (configuration not stated),108
Cc1ccccc1NC(=O)c1c(NC(=O)c2ccco2)sc2c1CCC2,97
COc1ccc(-n2nnnc2-c2cnc(N)nc2C(F)(F)F)cc1,98
CCOCCn1ccc2c(OCC(=O)NC3CCCCC3)cccc2c1=O,92
COc1ccc(S(=O)(=O)N(CC#N)Cc2ccco2)cc1OC,105
CNC(=O)/C=C1\NC(C)(C)Cc2c1ccc1ccccc21,98
CCOC(=O)/C(C#N)=C\c1ccc(N2CCOCC2)cc1,92
NC(=O)N/N=C/c1ccc(OC(=O)c2ccco2)cc1,90
O=C1N/C(=C/c2ccsc2)C(=O)N1c1ccccc1,116
CCOC(=O)CCc1ccc(C(=O)C(F)(F)F)o1,90
O=c1oc2cc(O)ccc2cc1-c1ccc(F)cc1,89
CS(=O)(=O)N(CC(N)=O)C1CCCCC1,98
N#Cc1c(N)ccn(Cc2ccccc2)c1=O,92
CNC[C@H](O)c1ccc(O)c(O)c1,93

# Bioassay records from PubChem BioAssay.
